Cruzain inh Det: inhibitors of Trypanosoma cruzi cruzain with detergent | purified cruzain, Z-FR-AMC fluorescence, 0.01% Triton | Potency, µM, without a hit: max response, negative = inhibition, usual class: inhibitors | 200,000 tested, 0.43% active;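 further: plate controls were neutral wells for no effect and buffer without enzyme for full effect; nearly all actives have a fitted effect of over 40% in size; top concentration of the series not given in the record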
Target sequence (P25779 123-467 limits assumed): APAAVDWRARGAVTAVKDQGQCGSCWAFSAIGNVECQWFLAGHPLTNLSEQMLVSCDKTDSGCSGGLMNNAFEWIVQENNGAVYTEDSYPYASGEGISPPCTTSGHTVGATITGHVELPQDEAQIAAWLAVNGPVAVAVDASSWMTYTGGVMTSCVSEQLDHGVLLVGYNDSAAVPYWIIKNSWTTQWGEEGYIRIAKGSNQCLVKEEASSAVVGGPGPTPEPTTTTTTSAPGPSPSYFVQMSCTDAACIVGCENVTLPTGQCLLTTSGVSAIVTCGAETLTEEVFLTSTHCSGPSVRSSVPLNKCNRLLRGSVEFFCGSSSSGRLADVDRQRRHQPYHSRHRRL
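In this qHTS format, compounds are incubated with 1.5 nM cruzain for 15 min at room temperature before 2 uM Z-FR-AMC is added. Release of AMC is followed at 360/450 nm, and progress is taken as the 60 s fluorescence difference.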
Cruzain noTriton: blocks cruzain activity in detergent-free assay; P25779; 200,000 tested, 2.3% active; Potency, µM, for the others: max response, negative = inhibition, usual class: inhibitors; purified cruzain, Z-FR-AMC fluorescence, no detergent;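 further: plate controls were enzyme without inhibitor for no effect and buffer without enzyme for full effect; nearly all actives have a fitted effect of over 40% in size; top concentration of the series not given in the record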
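Purified cruzain at 1.5 nM, pre-incubated 15 min with compound at room temperature in 100 mM sodium acetate pH 5.5, 5 mM DTT, 0.00005% Triton X-100. Reaction started with 2 uM Z-FR-AMC; AMC fluorescence increase over 60 s gives rate.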
NS1 inh: blocks influenza NS1 protein function; Potency, µM (series often up to 46.1 µM), for the others: top-dose activity, positive = more growth; 270,000 tested, 0.4% active; S. cerevisiae slowed by influenza A NS1, growth recovery by OD600; active means well fitted rising curve with a large enough effect; inconclusive means small, poorly fitted or top-dose-only effect; inactive means no such curve, though single readings can be large or run the other way; further: nearly all actives have a fitted effect of over 50% in size
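S. cerevisiae expressing influenza A NS1, grown in glucose, washed, then diluted 1:100 into pH 6.0 -URA galactose medium with 23 nl compound. Growth recovery read as OD600; NS1-free strain serves as control.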
StopGo reporter: FMDV 2A StopGo reporter, luciferase signal. human cells with a luciferase reporter of 2A StopGo recoding; control for the full effect not named in the record. Potency, µM (series often up to 57.9 µM), inactives show top-dose signal change, negative = less light. 410,000 tested, 1.2% active. AID 1159524; active = well fitted falling curve with a large enough effect; inconclusive = small, poorly fitted or top-dose-only effect; inactive = no such curve, though single readings can be large or run the other way; tested in HEK293T cells; further: on the % scale 0 is the no-effect control and ±100 the full control effect; nearly all actives have a fitted effect of over 45% in size; luciferase light after 4 h
Lassa entry inh: blocks Lassa virus binding to or entry into cells; Potency, µM (doses to about 37.9 µM), without a hit: top-dose activity change, negative = inhibition, hits mostly inhibitors; AID 540256; Lassa virus pseudotype entry inhibition, cell reporter; control for the full effect not named in the record; 300,000 tested, 1.2% active; active means well fitted inhibition curve with a large enough effect; inconclusive means small, poorly fitted or top-dose-only effect, or effect the other way; inactive means flat fitted curve, though single readings scatter; tested in HEK293 cells; further: on the % scale 0 is the no-effect control and ±100 the full control effect; nearly all actives have a fitted effect of over 50% in size; luciferase read-out
SARS PLP yeast: blocks SARS-CoV papain-like protease in a yeast assay; Potency, µM (series often up to 32.9 µM), inactives show at the top dose activity, positive = growth rescue; 330,000 tested, 0.19% active; S. cerevisiae expressing SARS-CoV PLpro, growth rescue; control for the full effect not named in the record; AID 485353; active means well fitted rising curve with a large enough effect; inconclusive means small, poorly fitted or top-dose-only effect; inactive means no such curve, though single readings can be large or run the other way; further: 0% is about no effect; nearly all actives have a fitted effect of over 55% in size; growth read by luminescence after 48 h
RE007 growth inh: less growth of the S. pombe RE007 Vpr strain; 360,000 tested, 0.21% active; AID 651644; Potency, µM (doses to about 92.2 µM), without a hit: at the highest dose activity change, negative = less growth; S. pombe RE007 Vpr strain, BacTiter-Glo ATP luminescence, 24 h; control for the full effect not named in the record; active = well fitted falling curve with a large enough effect; inconclusive = small, poorly fitted or top-dose-only effect; inactive = no such curve, though single readings can be large or run the other way;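 further: on the % scale 0 is the no-effect control and ±100 the full control effect; nearly all actives have a fitted effect of over 50% in size; the assay follows cell death caused by Vpr and the record does not say whether a fall means rescue or toxicity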
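Fission yeast RE007 carrying one integrated HIV-1 vpr copy, seeded at OD 0.01 in PMG+AL medium with 23 nL pinned compound. Grown 24 h at 30 degrees; viability read by BacTiter-Glo luminescence after 5 min.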
Marburg entry inh: blocks Marburg virus binding to or entry into cells | Marburg virus pseudotyped entry inhibition, cell reporter; control for the full effect not named in the record; about a third of the inactives were read at about 46 µM | Potency, µM (titrated, usually from 37.8 µM), inactives show at the top dose activity change, negative = inhibition, most hits filed as inhibitors | 300,000 tested, 1.8% active | AID 540276; active = well fitted inhibition curve with a large enough effect; inconclusive = small, poorly fitted or top-dose-only effect, or effect the other way; inactive = flat fitted curve, though single readings scatter; tested in HEK293 cells; about a fifth of its hits are not listed in these tables; further: on the % scale 0 is the no-effect control and ±100 the full control effect; luciferase read-out
* marks the source's active call; other numbers are inactive results; ? = inconclusive; . = not tested or not shown; & = joins results of further samples; [ ] = remark or other dose. Unless noted, the call rests on the fitted dose curve; in most records, active means well fitted curve in the direction sought with a large enough effect; inconclusive means small, poorly fitted or top-dose-only effect, or another doubt; inactive means no such curve, though single readings can be large; an effect the other way counts as inactive or inconclusive. Potency means the concentration at half of the fitted maximal effect.

SMILES	Cruzain inh Det	Cruzain noTriton	NS1 inh	StopGo reporter	Lassa entry inh	SARS PLP yeast	RE007 growth inh	Marburg entry inh
COCCN1Cc2cccc(C(=O)Nc3cc(C)cc(C)c3)c2C1=O	-6.0%	?	-6%	2%	3%	-1%	-5%	?
O=C(CSc1c2c(nc3ccccc13)CCC2)N1CCCC1	.	.	.	-15%	-5%[46.1 µM]	-1%	14%	-13%[46.1 µM]
Cc1nn(-c2ccccc2)nc1CNC(=O)C1CCC1	.	.	-2%	5%	.	-1%	-12%	.
CC1Oc2ccccc2N(Cc2cccc(F)c2)C1=O (configuration not stated)	.	.	1%	-5%	.	9%	-3%	.
O=C(CCn1c(=S)oc2ccccc21)NC1CCCCCCC1	.	.	1%	-15%	.	0%	-8%	.
Fc1ccc(CNCc2ccc(Br)cc2)cc1	0.0%	2%	-9%	0%	-16%	-3%	-31%	-3%
COc1ccc(C(=O)C2CCN(CC(=O)Nc3cc(C)cc(C)c3)CC2)cc1	.	.	-21%	-16%	-16%[46.1 µM]	0%	7%	?
CC/C(C)=N/NC(=S)NCc1ccco1	0.0%	-6%	-6%	-1%	?	-2%	1%	?
O=C(NCc1ccccc1)c1ccc(CNS(=O)(=O)c2ccc(Br)cc2)cc1	-1.6%	-8%	.	-2%	-1%[46.1 µM]	.	.	11%[46.1 µM]
N#CCc1c(C#N)c(N)nc(N2CCN(S(=O)(=O)c3ccccc3)CC2)c1C#N	-9.7%	?	7%	?	-9%	16%	2%	?
COC(=O)C1=C(C)N(Cc2ccco2)C(=O)N[C@H]1c1cccc(C(F)(F)F)c1	1.4%&-4.2%	0%&-1%	11%	-8%	-16%	4%	4%	-12%
COc1ccc(N(C)S(=O)(=O)c2cccc(C(=O)NCc3ccc4c(c3)OCO4)c2)cc1	.	.	.	0%	?	-3%	5%	?
CCCc1nnc(NC(=O)C(CC)Sc2nnc3c4ccccc4n(C)c3n2)s1 (configuration not stated)	-1.9%	-3%	.	-15%	-3%[46.1 µM]	.	.	3%[46.1 µM]
C/C(O)=C(\C#N)c1nc2ccccc2[nH]1	-0.1%	-1%	1%	-15%	8%	19%	-6%	1%
O=C(CSc1nnc2c3ccccc3c3ccccc3c2n1)Nc1ccccc1F	-17%	7.9µM*	-12%	-13%	12%	3%	10%	13%
CC(=O)N1CCN(c2ccccc2NC(=S)NC(=O)c2cc3ccccc3o2)CC1	.	.	3%	-17%	.	-2%	-3%	.
C#CCOCCOCCOCCNc1nc(N2CCN(C(=O)[C@H]([C@@H](C)CC)n3cc(CCCN=C(N)N)nn3)CC2)nc(N2CCN(C(=O)[C@H](CCCCN)n3cc(CCC(=O)O)nn3)CC2)n1	-7.4%	-1%	6%	0%	-3%	8%	-6%	21%
O=C(O)c1ccc(NC(CSCc2ccc(F)cc2)C(=O)O)c([N+](=O)[O-])c1 (configuration not stated)	0.1%	-30%	5%	.	-2%	8%	5%	24%
CCOC(=O)CNC(=O)c1sc2nc(C)cc(C)c2c1N	-14%	-4%	7%	30%	?	0%	-10%	7%
CCCCN(C)C(=O)C1CCN(c2ccc(S(=O)(=O)N3CCOCC3)cc2[N+](=O)[O-])CC1	.	.	.	-12%	-22%	-4%	5%	-12%
O=C(NCc1ccc(S(=O)(=O)Nc2ccccc2Cl)s1)c1ccccc1	.	.	2%	2%	22%	0%	22%	?
O=C(NNC(=O)c1ccc(Cl)nc1)c1ccc(Br)cc1	.	.	.	0%	24%[46.1 µM]	-11%	2%	-4%[46.1 µM]
COc1cccc(CNC(=O)c2ccc3c(c2)N(Cc2ccc(C(F)(F)F)cc2)C(=O)c2ccccc2S3)c1OC	-0.2%	10µM*	.	0%	.	.	.	?
O=C(NC1CCN(Cc2ccccc2)CC1)c1c(F)cccc1F	-2.6%	9%	6%	0%	4%	8%	?	?
COc1ccc(NC(=O)c2cc(-c3cc(OC)c(OC)c(OC)c3)nc3ccccc23)cc1OC	.	.	19%	-17%	?	2%	5%	?
CCCC[C@@H]1CN=C(N)N1CCc1cc(C(F)(F)F)cc(C(F)(F)F)c1	.	.	1%	-1%	.	2%	2%	.
O=C(Nc1nnc(N2CCCC2)s1)Nc1cc(F)ccc1F	-6.7%	9%	.	50%[activator]	-14%[46.1 µM]	.	.	-10%[46.1 µM]
CN1CCC2(CC1)C1CN(C)CC=C1C(C#N)=C(N)C2(C#N)C#N (configuration not stated)	-7.3%	-4%	1%	-3%	-1%	4%&-2%	-7%&-2%	-9%
CCOC(=O)c1cnn(-c2ccccc2)c1NC(=O)c1cccs1	3.1%	-1%	4%	.	4%	-2%	2%	13%
COC(=O)c1c(N2C(=O)CCC2=O)sc2c1CCCC2	-2.7%	-10%	-9%	5%	.	10%	1%	.
CCCCNc1cc(C)nc(N2CCOCC2)n1	2.0%	-1%	7%	0%	-3%	?	-4%	-7%
OC(c1ccccc1)(c1ccccc1)c1ccncc1	0.0%	11%	13%	-10%	0%	-14%	0%	-20%
C[C@H](NC(=O)NCc1cccs1)C(=O)O	2.4%	-3%	2%	-10%	-40%[14.3 µM]	2%	19%	8%
COC(=O)C(NC(=O)CCc1c(C)nc2c(-c3ccccc3)c(C)nn2c1C)C(C)C (configuration not stated)	-0.6%	?	.	-19%	21%[46.1 µM]	.	.	3%[46.1 µM]
COc1ccc(Cn2c(=O)oc3ccc(C)cc32)cc1	.	.	-9%	-6%	-14%[46.1 µM]	-2%	-5%	-12%[46.1 µM]
c1ccc(OCC2CCNCC2)nc1	.	.	-4%	-12%	.	2%	4%	.
Cc1ccc(C)c(NC(=O)c2nnn(Cc3ccc(F)cc3Cl)c2N)c1	-1.5%	8%	.	0%	12%[46.1 µM]	.	.	-7%[46.1 µM]
Cc1nnc(CN(C)C(=O)CC2C(=O)NCCN2Cc2ccccc2C)o1 (configuration not stated)	.	.	-20%	5%	.	4%	3%	.
Cc1cc(C)cc(-n2c(C)cc(/C=C3\C(=O)NC(=O)N(C)C3=O)c2C)c1	-2.8%	-27%	26%	?	-5%	-4%	-1%	?
CCCN1C(=O)c2[nH]nc(-c3cc(Cl)c(C)cc3O)c2C1c1ccc(O)c(OC)c1 (configuration not stated)	.	.	10%	-12%	.	2%	-3%	.
COc1ccc(CCNC(=O)CSCc2ccc(Br)cc2)cc1OC	.	.	-15%	-22%	.	-1%	1%	.
O=C(CN1C(=O)C(=O)N(C2CCCC2)C1=O)NCCc1ccc(F)cc1	.	.	.	28%	-1%[46.1 µM]	2%	-7%	4%[46.1 µM]
CCOC(=O)c1cc(OC(=O)c2cccc(C)c2)n(-c2ccccc2)n1	-7.0%	6%	.	2%	17%[46.1 µM]	.	.	4%[46.1 µM]
CC(C)(C)C(=O)CCN1C(=O)C2(OCCO2)c2ccccc21	2.9%	-5%	-3%	-5%	-2%	1%	3%	2%
O=C(N/N=C/c1cc([N+](=O)[O-])ccc1O)C1CCCCC1	-5.3%	5%	-26%	1%	?	?	?	?
OCCNC(=S)Nc1cc(Cl)cc(Cl)c1	.	.	0%	-2%	-18%	1%	9%	-12%[46.1 µM]
COc1ccc(CC(=O)Nc2cccc3c2CCCC3)cc1	.	.	-1%	38%[activator]	.	0%	1%	.
Nc1cc(C(=O)OCC(=O)N2CCN(C(=O)COC(=O)c3ccc(Cl)c(N)c3)CC2)ccc1Cl	.	.	.	0%	2%	0%	-10%	-15%
C=CCNc1ncnc2c1cnn2-c1ccc(OC)cc1	4.7%	-9%	-13%	?	?	7%	2%	?
O=C(CN1C(=O)COc2ccccc21)NCc1ccc(C(=O)O)cc1	7.7%	-7%	8%	14%	1%	-24%	12%	15%
NC(=O)C1(N2CCCCC2)CCN(C2CC(=O)N(Cc3cccs3)C2=O)CC1 (configuration not stated)	-1.9%	3%	5%	3%	21%	-9%	-21%	-17%
O=C(NCc1ccncc1)C(=O)N/N=C/c1ccc(OCc2ccccc2)cc1	.	.	2%	-3%	8%	-3%	1%	?
COC(=O)[C@@]1(Cc2ccc(F)cc2)[C@H]2c3cc(C(=O)N(C)C)n(C[C@H](O)CO)c3C[C@H]2CN1C(=O)c1ccccc1	-1.9%	?	-22%	-7%	-4%	-6%	5%	-14%
COc1ccc(-c2noc(C3CC(=O)N(c4cc(C)cc(C)c4)C3)n2)cc1 (configuration not stated)	-5.9%	-6%	.	?	3%[46.1 µM]	.	.	.
CCc1ccc(C(N)=S)cc1	.	.	.	18%	-3%[46.1 µM]	16%	-2%	19%[46.1 µM]
CCN(CC)C(=O)C1CCN(Cc2cccc(OCc3ccccc3)c2)CC1	1.8%	?	-2%	-23%	-10%	2%	-10%	?
Cc1ccc(-n2cnc3c(=O)[nH]cnc32)cc1	.	.	.	22%	-4%[46.1 µM]	.	12%	?
COc1ccccc1C/C(N)=N/OC(=O)COc1cc(C)cc(C)c1C	.	.	0%	6%	.	-2%	-11%	.
CCn1c(=O)c2sccc2n2c(CCC(=O)Nc3ccc(C(C)C)cc3)nnc12	-1.0%	?	.	-23%	-22%[46.1 µM]	.	.	2%[46.1 µM]
Cc1ccc(C)c(S(=O)(=O)N2CCCOC2CNC(=O)C(=O)NC2CCCC2)c1 (configuration not stated)	.	.	2%	-1%	12%	2%	-29%	6%

Later entries.
SMILES	Cruzain inh Det	Cruzain noTriton	NS1 inh	StopGo reporter	Lassa entry inh	SARS PLP yeast	RE007 growth inh	Marburg entry inh
O=C(c1ccc(CS(=O)c2cccc(Cl)c2)o1)N1CCN(c2ccccn2)CC1 (configuration not stated)	.	.	13%	-28%	.	-4%	-1%	.
COc1ccc(OCCC(=O)OCC(=O)NC(=O)NC2CCCCC2)cc1	.	.	-72%	-19%	13%	-17%	-5%	?
CCOc1ccc(-n2c(=O)c3c(C)c(C)sc3n(Cc3c(F)cccc3Cl)c2=O)cc1	1.0%	-2%	.	-5%	-2%[46.1 µM]	.	.	7%[46.1 µM]
O=C(CSc1nc2ccccc2[nH]1)c1c[nH]c2ccccc12	.	.	2%	5%	14%[46.1 µM]	0%	-15%	30%[46.1 µM]
O=C(O)c1ccc(NC(C(=O)c2ccccc2)c2ccccc2)cc1 (configuration not stated)	.	.	.	22%	3%[46.1 µM]	.	9%	?
Cc1ccc(CCNC(=O)c2sc3ncccc3c2-n2c(C)ccc2C)cc1	-7.7%	-2%	.	-25%	-10%[46.1 µM]	.	.	.
COC(=O)c1ccc(/C=C/c2ccc3cccc(OC)c3n2)cc1	-13%	?	-4%	?	-1%	-22%	-11%	-29%
O=C1NC2=C(C(=O)c3ccccc32)C(c2ccccc2)N1 (configuration not stated)	1.1%	?	2%	.	-28%	11%	-5%	4%

Screens from PubChem BioAssay.

Compounds as they come, and some 4.7% of all compounds hit somewhere here.
